TRPML1 agonist: qHTS for Agonists of the Human Mucolipin Transient Receptor Potential 1 (TRPML1); Mucolipin-1 (Homo sapiens), Q9GZU1; TRPML1-expressing cells, Ca2+ dye fluorescence, FDSS; host cell line not named in the record; reference of the full effect not given here; activation, % (test concentration not listed); hit rate 0.12% among 410,000; in the data active = activation above about 50%; inconclusive = about 30% to 50%; inactive = below about 30%; note: 0% is about no effect; the text of the record puts the active cut at 80%
Target sequence (Q9GZU1 whole entry, looked up): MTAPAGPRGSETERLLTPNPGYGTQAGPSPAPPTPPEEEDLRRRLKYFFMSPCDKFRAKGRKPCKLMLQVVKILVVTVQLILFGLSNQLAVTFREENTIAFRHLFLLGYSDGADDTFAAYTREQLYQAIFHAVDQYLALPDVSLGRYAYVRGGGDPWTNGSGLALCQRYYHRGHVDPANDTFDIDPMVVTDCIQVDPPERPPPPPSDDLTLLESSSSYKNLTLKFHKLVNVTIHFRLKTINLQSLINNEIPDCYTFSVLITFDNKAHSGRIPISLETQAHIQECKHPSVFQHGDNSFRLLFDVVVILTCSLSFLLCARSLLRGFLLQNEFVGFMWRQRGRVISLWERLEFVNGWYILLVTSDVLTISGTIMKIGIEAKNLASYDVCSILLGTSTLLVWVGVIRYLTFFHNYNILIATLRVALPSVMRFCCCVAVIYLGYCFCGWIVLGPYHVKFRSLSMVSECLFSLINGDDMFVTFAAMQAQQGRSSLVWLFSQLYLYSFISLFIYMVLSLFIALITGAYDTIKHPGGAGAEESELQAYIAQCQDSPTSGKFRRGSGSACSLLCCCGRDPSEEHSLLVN
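TRPML1-DL cells, Tet-induced overnight (~16 h, 37 degrees C), loaded 45-90 min at room temperature with Ca8 no-wash calcium dye plus quencher. FDSS fluorescence: 10 s baseline, compound pin-transfer, 110 s agonist read, then EC80 54-4 (4uM final) and 110 s antagonist read.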
gsp ag: qHTS for Agonist of gsp, the Etiologic Mutation Responsible for Fibrous Dysplasia/McCune-Albright Syndrome: qHTS. gsp mutant cells, cAMP HTRF, 30 min; control for the full effect not named in the record. Potency, µM (highest dose often 76.9 µM), inactives show top-dose activation (cAMP increase), hits mostly activators. hit rate 0.13% among 340,000. AID 624287, 2012; active = well fitted activation curve with a large enough effect; inconclusive = small, poorly fitted or top-dose-only effect, or another doubt; inactive = no such curve, though single readings can be large or run the other way; cell line not stated here;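 note: phosphodiesterase inhibitor Ro 20-1724 added with compounds to block cAMP breakdown; potency is the fitted concentration of half-maximal effect; nearly all actives have a fitted effect of over 60% in size; about a fifth of the inactives were tested at one dose only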
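Cells in DMEM/10% FBS with G418 were pretreated with compounds in DMSO plus […] (300 uM stock) for 30 min at 37C. cAMP was measured by HTRF (cAMP-d2 plus anti-cAMP antibody-K) after 30 min at room temperature.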
TRPML1 inh: qHTS for Inhibitors of the Human Mucolipin Transient Receptor Potential 1 (TRPML1); hit rate 0.02% among 390,000; Mucolipin-1 (Homo sapiens), Q9GZU1; TRPML1-inducible cells, Ca2+ dye fluorescence, FDSS; stronger effect = lower value; inhibition of EC80 agonist-evoked calcium signal; activity change, negative = inhibition, % (concentration not given with the values); in the data active means activity change below about -50%; inconclusive means about -30% to -50%; inactive means above about -30%;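 note: stimulus is agonist 54-4 at its EC80 concentration; % is set by controls: 0 for no effect and ±100 for the full control effect; compound concentration not given in the record; the text of the record puts the active cut at -80%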
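TRPML1-DL cells, Tet-induced overnight (~16 h, 37 °C) at 1,500 cells/well, were loaded with Ca8 no-wash dye plus quencher for 45-90 min at room temperature. Compounds were pinned during FDSS kinetic reading; agonist 54-4 at EC80 (4 uM final) then added.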
gsp antag: qHTS for Antagonists of gsp, the Etiologic Mutation Responsible for Fibrous Dysplasia/McCune-Albright Syndrome: qHTS; gsp-mutant cells, cAMP HTRF, 30 min; control for the full effect not named in the record; Potency, µM (series often up to 76.9 µM), without a hit: top-dose activity change, negative = inhibition, hits mostly inhibitors; hit rate 0.4% among 340,000; AID 624288, 2012; active = falling curve of any shape with a large fitted effect; inconclusive = falling curve, mostly with a smaller effect; inactive = flat or rising curve; cell line not stated here;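 note: intracellular cAMP measured with PDE inhibitor Ro 20-1724 present during compound exposure; potency is the fitted concentration of half-maximal effect; % is set by controls: 0 for no effect and ±100 for the full control effect; nearly all actives have a fitted effect of over 65% in size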
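Cells in G418 medium, seeded 16-24 h, 37C; buffer exchange to DPBS + 1 mM CaCl2, 0.5 mM MgCl2, 0.05% BSA; cpds in DMSO + […] (300 uM stock), 30 min 37C; HTRF cAMP detection.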
Menin-MLL FL inh: qHTS Assay for Inhibitors Targeting the Menin-MLL Interaction in MLL Related Leukemias: Competition With Fluorescein Labeled MLL-derived Peptide. Fluorescence polarization, fluorescein-MLL peptide displacement from menin. FP activity change, % at 61.4 µM. 290,000 tested, under 10 active; inconclusive = falling polarisation curve, or a change in total fluorescence; inactive = total fluorescence flat and polarisation flat or rising; no compound was filed as active; the % refers to the polarisation; negative = inhibition;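 note: % of control where 0% means no effect; inhibitors lower the polarisation; unlabelled MLL peptide was the positive control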
ClpP mod: qHTS Assay for Activators of ClpP; AID 651965, 2013; hit rate 1.9% among 340,000; Potency, µM (highest dose often 57.5 µM), inactives show top-dose activity change, negative = active; purified B. subtilis ClpP, FRET peptide cleavage, 20 min; ATP-dependent Clp protease proteolytic subunit (Bacillus subtilis (strain 168)), P80244; active = well fitted falling curve with a large enough effect; inconclusive = small, poorly fitted or top-dose-only effect; inactive = no such curve, though single readings can be large or run the other way; note: potency is the fitted concentration of half-maximal effect; the source files actives as falling curves though it sought activators and does not explain the sign; nearly all actives have a fitted effect of over 65% in size; many hits overshoot -100%
Target sequence (P80244 whole entry, looked up): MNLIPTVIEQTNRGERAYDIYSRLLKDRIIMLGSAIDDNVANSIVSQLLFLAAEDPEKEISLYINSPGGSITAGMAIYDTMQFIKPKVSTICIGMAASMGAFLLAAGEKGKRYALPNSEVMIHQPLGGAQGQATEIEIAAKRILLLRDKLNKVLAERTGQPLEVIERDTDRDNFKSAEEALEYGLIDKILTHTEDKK
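ClpP 10 microg/mL final, pH 8 Tris/KCl buffer with BSA, glycerol, Tween-20; compound pinned in; FRET-FV substrate; RT 20 min; Ex320/Em430; ΔFRET vs ADEP 5.8 microM, DMSO, no enzyme.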
* marks the source's active call; other numbers are inactive results; ? = inconclusive; · = no result given; & = joins results of further samples; [ ] = remark or other dose. Rows were taken by chance. Share with any hit: about 2.1%.

SMILES | TRPML1 agonist | gsp ag | TRPML1 inh | gsp antag | Menin-MLL FL inh | ClpP mod
CCCOP(=O)(c1ccc(N(C)C)cc1)C(O)c1ccncc1 (configuration not stated) | 0.0 | -7.1% | -0.3 | -2.7% | 1.0 | -1.5%
Cc1ccc(SCc2cn3c(C)csc3n2)cc1 | 0.5 | -0.6% | -11.0 | -9.2% | 3.7 | 0.5%
O=C(CSc1nc2ccccc2c(=O)n1-c1ccc(SC(F)F)cc1)Nc1ccc(N2CCOCC2)cc1 | -0.1 | -38.3%[inhibitor] | 3.8 | -5.4% | 2.1 | ·
CCN1/C(=C/C(=O)c2ccco2)Sc2ccccc21 | -0.7 | 13.5% | 0.0 | 3.8% | ? | -4.6%
COc1cccc(-c2c(C(=O)N/N=C/c3cccs3)nnn2-c2nonc2N)c1 | -0.2 | -59.0%[inhibitor] | 2.8 | -15.0% | 2.2 | 0.5%
COc1cc(C(=O)NCc2nnc(SCC(=O)NCc3ccco3)o2)cc(OC)c1OC | -0.1 | ? | -6.4 | 3.6% | · | -2.1%
CCCC(O)c1nc2ccccc2n1CCCOc1ccc(Cl)cc1 (configuration not stated) | 1.0 | · | -10.0 | · | · | 1.7%
CCOc1ccc(CC(=O)Nc2cccc(-c3ccc4nnc(C)n4n3)c2)cc1 | 2.0 | 18.1% | -15.1 | -21.2% | -0.9 | ·
CS(=O)(=O)C1=C(O)C(=O)N(CCCC(=O)O)C1c1ccccc1F (configuration not stated) | 0.7 | 8.0% | -0.9 | -2.5% | -1.1 | -3.3%
Clc1ccc(CN2C3=NCCN3c3ccccc32)cc1 | 0.2 | -13.5% | 5.6 | 4.8% | 5.8 | -0.6%
O=C(Nc1ccc(-c2csnn2)cc1)C1CC1 | -0.1 | 3.2%[15.4 µM] | 8.6 | 13.1% | 2.0 | ·
Cc1ccc(C(=O)OC(C)CN2CCOCC2)cc1 (configuration not stated) | -0.3 | -2.5%[15.4 µM] | -9.7 | 17.4% | -0.7 | 39.8µM*
COc1ccc(OC)c(C2C(C(=O)c3cccs3)=C(O)C(=O)N2CCN2CCOCC2)c1 (configuration not stated) | -0.3 | 2.9% | 6.1 | 0.8% | -2.3 | -5.2%
Cn1cnc2cc(NC(=O)c3cccs3)ccc21 | 0.3 | 20.7% | 32.6 | -7.3% | -0.1 | 0.8%
Cc1ccc(S(=O)(=O)Nc2ccccc2C=NNC(=O)c2ccncc2)cc1 | 0.8 | 27.9% | 6.1 | · | · | -0.4%
O=C1CC2(CCN(C(=O)COc3ccccc3F)CC2)Oc2ccccc21 | 0.1 | -0.7%[15.4 µM] | -4.1 | -0.6% | · | ?
Cc1c2ccccc2c(C)c2c1ccc1ccccc12 | 1.0 | · | -0.8 | -10.2% | · | 4.1%
NC(CCCCCP(=O)(c1ccccc1)c1ccccc1)C(=O)O (configuration not stated) | 0.3 | -11.9%[15.4 µM] | -0.1 | 8.3% | 2.9 | ·
CCN(C(=O)c1ccc2c(OC)n(CC)nc2c1)c1ccc(OC)cc1 | -0.3 | · | 43.2 | 6.6% | 2.2 | 3.9%
COc1ccc(NC(=O)c2csnn2)cc1Cl | 0.6 | · | 1.3 | · | · | -2.3%
COc1ccccc1NC(=O)Oc1cccc(OC(=O)c2ccccc2)c1 | 0.4 | 4.2% | -4.2 | -10.4% | 4.6 | 0.2%
C#CCOCCOCCOCCNc1nc(N2CCN(C(=O)Cn3cc(CCCN=C(N)N)nn3)CC2)nc(N2CCN(C(=O)[C@H](C)n3cc(CCCN=C(N)N)nn3)CC2)n1 | -0.3 | 1.5% | -3.3 | 1.4% | -1.2 | -0.1%
COc1ccc(Cn2ccc(=O)c(Cc3c(Cl)cccc3Cl)c2C)cc1 | 0.1 | 0.8% | 40.1 | ? | 2.7 | -2.0%
COc1cccc(N(CC(=O)NC2CCCCC2)C(=O)c2snc(C(N)=O)c2N)c1 | 0.0 | -8.1%[15.4 µM] | 41.6 | -21.6% | -0.4 | ·
CCOC(=O)/C(=C/C=C/c1ccccc1)NC(=O)c1ccccc1 | -0.6 | -26.3%[15.4 µM] | -21.2 | 10.2% | 7.2 | ·
Further records follow:
SMILES | TRPML1 agonist | gsp ag | TRPML1 inh | gsp antag | Menin-MLL FL inh | ClpP mod
Cc1ccc(-n2cc(C(=O)Oc3cccc(C)c3)c3ccccc3c2=O)cc1 | 2.7 | · | -17.1 | · | · | 0.6%
CCOc1ccccc1C(c1c(O)nc(SC)[nH]c1=O)c1c(O)nc(SC)[nH]c1=O | -1.1 | -24.3% | 61.3 | 2.2% | · | ·
O=C(COC(=O)c1cc(S(=O)(=O)N2CCCCC2)ccc1N1CCOCC1)NCCc1ccc(F)cc1 | 2.4 | 2.8% | 7.1 | -6.5% | -1.6 | -4.5%
CCOC(=O)C1CCN(S(=O)(=O)c2cc3c4c(c2)CC(=O)N4CCC3)CC1 | 0.1 | · | -12.8 | · | · | 1.1%
O=S(=O)(NCc1cccs1)c1ccc(Cl)s1 | 1.8 | 1.0% | 16.9 | 12.4% | 0.8 | -3.0%
Cc1cc(C(=O)NC2CCCc3ccccc32)ccc1[N+](=O)[O-] (configuration not stated) | 4.3 | ? | 6.5 | -1.8% | -0.4 | ·
COc1ccc(-c2nsc3c(N4CCN(C(=O)c5ccco5)CC4)ncnc23)cc1 | 2.9 | 12.6% | -2.4 | -24.1% | 2.5 | -17.9%
O=C(NCc1cccs1)C1CCCN1S(=O)(=O)c1ccccc1F (configuration not stated) | -1.1 | 24.9% | 7.3 | -1.9% | -1.5 | -13.7%
CC(Oc1ccc2c(-c3ccccc3)cc(=O)oc2c1)C(=O)N[C@H](Cc1c[nH]c2ccccc12)C(=O)O (some centres not stated) | · | · | · | -0.3% | 3.3 | -2.4%
CCN(CC)c1ccc(NC(=O)CCCOc2cccc(C)c2)cc1 | 1.8 | -12.9%[15.4 µM] | -4.8 | -5.0% | 0.8 | ·
CCc1ccc(CN(C)C(=O)c2ccc3c(=O)n4c(nc3c2)CCC4)cc1 | -0.2 | 6.4% | 13.4 | 9.8% | · | -1.6%
O=C(NCCNC(=O)C(F)(F)F)c1ccncc1 | 0.1 | -28.8% | -2.5 | 10.3% | 0.0 | -1.2%
CCOC(=O)C/C(C)=N/NC(=O)c1cccs1 | 4.3 | -0.4% | 10.8 | 3.2% | -1.0 | -4.2%
Cc1ccc(NC(=O)c2cc(N3C(=O)C=CC3=O)ccc2N2CCOCC2)cc1 | 0.2 | 16.3%[15.4 µM] | 9.5 | -1.0% | -7.1 | ·
N=C1/C(=C\c2coc3ccc(O)cc3c2=O)C(=O)N=C2SC=CN12 | ? | 10.4%[15.4 µM] | -18.5 | -9.2% | ? | ·
COc1ccccc1CNS(=O)(=O)c1ccc(-c2cnc(C3CC3)o2)cc1 | 1.6&-0.3 | -38.8%[inhibitor] | -15.4&-20.5 | 4.3% | · | 4.0%&3.7%
COc1ccc(-n2c(C)cc(=O)c3c2CC(C)(C)CC3=O)cc1 | -0.9 | 9.3% | 21.0 | 5.4% | 1.6 | -0.5%
CN(Cc1ccccn1)C(=O)CC1C(=O)NCCN1Cc1ccc(F)cc1Cl (configuration not stated) | -0.2 | 18.3% | 47.2 | -8.1% | · | -6.3%
CCOC(=O)CSCC(NC(=O)OC(C)(C)C)C(=O)OCC (configuration not stated) | -0.8 | -12.5% | -5.8 | 2.4% | 2.2 | 0.4%
Cc1sc(-c2cc3ccccc3oc2=O)nc1-c1ccc(Cl)cc1 | -0.7 | · | -18.3 | · | · | 31.6µM*
Cc1ccc(C2(c3ccccc3)NC(=O)N(CC(=O)NC3CCCCC3)C2=O)cc1C (configuration not stated) | 1.2 | 1.7% | -1.2 | 3.5% | · | 3.8%
Cn1cnc2ncnc(Oc3ccc(Br)cc3)c21 | 0.1 | 5.0%[15.4 µM] | 17.4 | -5.9% | · | 0.6%
COc1ccc(/C=C2\C(=O)NC(=O)c3ccccc32)cc1OC | 0.4 | 4.4% | 14.5 | 0.0% | · | -11.4%
COc1ccc(-c2cn3c(n2)sc2cc(C(=O)Nc4c(C)cccc4C)ccc23)cc1 | 0.7 | · | 0.2 | · | · | 4.8%
Cc1cc2nc(C)c(=O)n(C)c2cc1C | -0.5 | 3.2%[15.4 µM] | 5.2 | 3.8% | -2.7 | 0.4%
Later entries.
SMILES | TRPML1 agonist | gsp ag | TRPML1 inh | gsp antag | Menin-MLL FL inh | ClpP mod
CCCCCCCCS(=O)CCC(=O)O (configuration not stated) | -0.2 | ? | 5.4 | 3.9% | 0.9 | ·
Cc1cccc(N2CCN(c3ccc(N4C(=O)CCCC4=O)cc3[N+](=O)[O-])CC2C)c1 (configuration not stated) | 2.5 | 7.7% | -1.6 | -9.4% | 2.1 | -0.4%
O=C(CCNS(=O)(=O)c1cccs1)N1CCN(c2ccc(F)cc2)CC1 | -0.4 | -17.7%[15.4 µM] | -11.8 | -2.7% | 9.1 | ·
CC1(C)CC(=O)C2=C(C1)NC(Nc1nc3ccccc3o1)=NC21CCCCC1 | -0.6 | ? | 6.8 | -5.4% | -1.5 | -7.7%
O=C(CCN1CCCCC1)c1cccc(Cl)c1 | 0.5 | 0.3% | 33.4 | 9.6% | · | 0.3%
COc1cccc2sc(Nc3nc(C)c(C(C)=O)s3)nc12 | -0.8 | 20.3% | 6.5 | -8.3% | 12.4 | -11.2%
Cc1ccc(-c2csc(Nc3ccc(S(N)(=O)=O)cc3)n2)o1 | -0.4 | 1.7%[15.4 µM] | 11.0 | -13.6% | 7.2 | ·
FC(F)(F)c1cccc(Cn2nnnc2-c2cccc(C(F)(F)F)c2)c1 | 2.9 | -23.2% | 15.6 | ? | 2.8 | -1.2%
CCc1ccc([C@@H]2CC=C(C(=O)O)[C@H](c3ccc(Br)cc3)N2S(=O)(=O)c2ccc(C)cc2)cc1 | -0.2 | · | -3.8 | -24.9% | · | 1.1%
CCOc1ccc(C2C(C#N)=C(N)Oc3cc(C)[nH]c(=O)c32)cc1OC (configuration not stated) | 1.2 | 3.1%[15.4 µM] | -10.7 | 5.6% | -5.6 | ·
COC(=O)c1ccc(C2C(Oc3ccccc3)C(=O)N2CCc2ccc(F)cc2)cc1 (configuration not stated) | 4.3 | -2.8% | 63.9 | 10.6% | -1.1 | 1.5%
Cc1ccnc(NC(=O)Nc2ccc3c(c2)N(C)C(=O)CS3)c1 | -0.6 | -8.3%[15.4 µM] | 50.4 | -14.3% | -0.2 | 3.1%
O=C(COC(=O)Cc1ccsc1)Nc1ccc(F)cc1Cl | 0.0 | -14.2% | -6.9 | 17.4% | · | 0.8%
